# From PubChem
# Sa growth 42C: blocks Staphylococcus aureus growth; relative growth, % (concentration not given with the values); 170,000 tested, 0.53% active; S. aureus RN4220 growth, OD600, 20 h, 42 °C; stronger effect = lower value;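 active = growth at 42 °C up to 50% and 20 or more points under that at 30 °C, or under 10% at both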;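 also: 300 nL library stock went into each well; scaled to the means of positive and negative controls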
# GIV Gai3 FP: blocks GIV peptide binding to rat Galpha-i3; AID 1224905; percent of control (FP), % (test concentration not listed); 210,000 tested, 0.42% active; Galpha-i3/FITC-GIV peptide fluorescence polarization, 90 min; stronger effect = lower value; scaled: aluminum fluoride 0%, vehicle 100%;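 active = replicate mean at 85% of control or lower, very high polarization wells dropped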;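 also: wells of about 15 µL received 100 nL stock; the first replicate is given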
# Target sequence (P08753 whole entry, looked up): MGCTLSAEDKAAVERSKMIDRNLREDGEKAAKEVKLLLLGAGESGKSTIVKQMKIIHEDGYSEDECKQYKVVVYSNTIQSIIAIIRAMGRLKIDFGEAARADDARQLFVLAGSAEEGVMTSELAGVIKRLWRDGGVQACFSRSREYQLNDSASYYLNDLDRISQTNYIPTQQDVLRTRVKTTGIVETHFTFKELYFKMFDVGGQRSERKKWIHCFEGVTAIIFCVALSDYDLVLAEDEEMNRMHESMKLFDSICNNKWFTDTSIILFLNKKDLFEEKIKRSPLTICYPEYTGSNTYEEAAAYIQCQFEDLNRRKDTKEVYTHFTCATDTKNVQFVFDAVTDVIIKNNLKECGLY
# HCMV UL50-53 inh: disrupts HCMV UL50-UL53 complex binding; HTRF UL50-UL53 interaction, normalized percent inhibition; inhibition, % (concentration not given with the values); 190,000 tested, 0.15% active; AID 1918969;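 active = both replicates at 50% or more, plus weaker picks with an unusually low signal ratio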;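 also: stock transfer was 100 nL into about 20 µL; 0% = negative control wells and 100% = wells with untagged competitor protein; inactives centre near -12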
# Sa growth 42C second temp: recorded beside Sa growth 42C, whose call it bears; relative growth, %; measured here: growth at 30 °C;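 optical density after 20 h as mean of two plates; 100% = untreated growth and lower means inhibition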
# Numbers without * were called inactive; · = no result given; & = joins results of further samples. This is a random part of the collection; overall some 0.8% were active at least once.
SMILES,Sa growth 42C,Sa growth 42C second temp,GIV Gai3 FP,HCMV UL50-53 inh
N#C/C(=C\N1CCc2ccccc21)S(=O)(=O)c1ccc(Cl)cc1,87,90,101,-5
COC(=O)c1ccc(NC(=O)C(C)Sc2nc(=O)cc(N)n2CCc2ccccc2)cc1 (stereo unspecified),96,95,111,-5
N#Cc1ccc(-c2ccc(OCc3ncc(-c4ccccc4)o3)cc2)cc1,84,89,·,-5
O=C(CCn1c(=O)c2ccccc2n(CC(=O)NCc2ccco2)c1=O)NCCc1ccc(Cl)cc1,89,95,107,-9
COc1ccccc1NC(=O)COC(=O)CC(C)(C)CC1=NS(=O)(=O)c2ccccc2N1,102,78,101,·
Cc1ccc(C(=O)N2Cc3ccccc3CC2C(=O)O)cc1 (stereo unspecified),86,92,101,-16
COc1ccc(C2C(=O)N(C3CCC(C)CC3)CC(=O)N2C2CCCCC2)cc1OC (stereo unspecified),93,87,103,·
CC(C(=O)O)(c1ccccc1)c1ccccc1,105,102,·,-16
COc1ccc(SCCc2nnc(-c3ccccc3)o2)cc1,108,81,100,-11
COc1ccccc1N(CC(=O)Nc1ccc2c(c1)OCO2)S(=O)(=O)c1cccs1,94,95,·,5
Cc1nc2c(-c3ccccc3)c(C)[nH]n2c(=O)c1Cc1ccc(C(C)C)cc1,11,7,103,-11
CS/C(NCc1ccco1)=C(/C#N)S(=O)(=O)c1ccc(Cl)cc1,107,93,100,6
Cc1cc(C)cc(N2CC(c3nnc(NC(=O)c4ccccc4)s3)CC2=O)c1 (stereo unspecified),·,·,105,-20
CN(Cc1cc(Br)cc(Br)c1N)C1CCCCC1,92&92,85&91,103,-31&-32&-5
OCC1CCCN1Cc1ccc(Cl)cc1Cl (stereo unspecified),111,96,110,-27
CCOC(=O)/C(C#N)=C/C=C1/Sc2ccccc2N1C,83,85,·,-29
COc1cc(OC)cc(C(=O)Nc2ccc3c(c2)OCCO3)c1,109,100,98,-16
N#Cc1ccc(/C=N/NC(=O)C2C3CCCCC32)cc1 (stereo unspecified),110,109,103,-25
Cc1cc(O)c(C(c2cccc(Cl)c2)N2CCN(c3ccccc3)CC2)c(=O)n1Cc1ccco1 (stereo unspecified),100,86,105,·
O=C(O)CSC(=S)N1CCOCC1,98,98,109,·
CCN1CCC(N(Cc2cccc(OC)c2)C(=O)Nc2ccc(C)cc2Cl)CC1,102,97,101,·
Cc1ccc(Cn2c(SCc3ccc(C(=O)N4CCCCCC4)cc3)nc3ccncc32)cc1,99,66,103,-6
CCCOc1ccc(C2NC(=O)NC(C)=C2C(=O)OC2CCCCCC2)cc1OC (stereo unspecified),·,·,106,-8
CCN(CC)C(=O)Cn1cc(S(=O)(=O)CC(=O)N2CCCCC2)c2ccccc21,94,91,102,·
O=C(CN1CCc2ccccc2C1)Nc1ccccc1,117,91,107,-16
# Continued.
SMILES,Sa growth 42C,Sa growth 42C second temp,GIV Gai3 FP,HCMV UL50-53 inh
CCc1ccc(NC(=S)NCC2CCCN2CC)cc1 (stereo unspecified),80,92,·,3
O=S(=O)(c1ccc(Cl)cc1)N(O)c1ccc(Cl)cc1,81,65,·,-22
Cn1c(NCc2ccncc2)nc2ccccc21,82,98,109,0
CCOc1ccc(C2SC[C@H](C(=O)O)N2C(C)=O)cc1 (stereo partly specified),104,94,105,-9
COCCn1c(SCc2coc(-c3cccs3)n2)nc2scc(-c3ccccc3)c2c1=O,72,78,·,-30
O=C(CCc1ccccc1)NCCc1nc(-c2ccccc2)n[nH]1,·,·,100,7
CC1CCN(S(=O)(=O)c2ccc3c(c2)CCC(=O)N3CC(=O)N2CCCCC2C)CC1 (stereo unspecified),·,·,112,-5
COc1ccccc1OCCSc1ncnc2nc[nH]c12,87,85,103,-9
O=C(Nc1ccc(NC(=O)c2cccs2)cc1)c1cccc(Br)c1,105,102,104,8
CC(C)NC(=O)N(Cc1ccccc1)Cc1cccnc1,105,99,102,17
N/C(=N\N=C\c1cccs1)SCc1ccccc1,99,96,110,-8
CC(C)S(=O)(=O)c1ncc(CO)n1Cc1ccccc1,101,86,103,-20
O=C(CN(Cc1ccco1)C(=O)c1ccccc1)Nc1ccc(Cl)c(Cl)c1,100,86,·,-10
CCC1C(C#N)=C(SC(C(N)=O)c2ccccc2)NC2=C1C(=O)CC(C)(C)C2 (stereo unspecified),91,60,·,-15
CCOC(=O)c1ccc(NC(=O)c2c(NCc3cc(OC)ccc3OC)sc3c2CCC3)cc1,101,58,142,·
O=C(c1ccc(CS(=O)(=O)c2ccccc2)cc1)N1CCCC1,96,97,107,-26
NC(=O)CSc1nc(N)c(NC(=O)c2cccs2)c(=O)[nH]1,92,78,98,-41
Cc1ccc(N2CCn3c2nc2c3c(=O)n(CC(=O)O)c(=O)n2C)cc1,·,·,100,-6
COc1ccc(CCNC(=O)c2ccc(Cn3c(=O)c(=O)[nH]c4cccnc43)cc2)cc1OC,·,·,109,-22
CCCCOc1ccc(NC(=O)c2oc3cc(C)ccc3c2C)c2cccnc12,·,·,103,-14
O=C(O)CNC(=O)c1cccnc1Sc1ccc(Cl)cc1,96,85,101,-12
Cc1nc(-c2ccc(C(=O)N3CCN(c4ccc(Cl)cc4)CC3)cc2)no1,·,·,103,-11
CCOC(=O)c1c(C)oc2ncnc(Nc3cccc(Cl)c3)c12,·,·,100,-34
Cc1ccc(N(CC(=O)Nc2cc(C)ccc2C)S(=O)(=O)c2c(C)noc2C)cc1,113,88,104,-10
CCCc1nc2sc3c(N4CCCCC4)ncnc3c2c2c1CCCC2,97,92,105,-24

# A few values from above:
# In HCMV UL50-53 inh, `COc1ccccc1OCCSc1ncnc2nc[nH]c12` is entered as -9
# In Sa growth 42C second temp, `N/C(=N\N=C\c1cccs1)SCc1ccccc1` is entered as 96
# In HCMV UL50-53 inh, `COc1ccc(CCNC(=O)c2ccc(Cn3c(=O)c(=O)[nH]c4cccnc43)cc2)cc1OC` is entered as -22
# In Sa growth 42C, `O=C(CN(Cc1ccco1)C(=O)c1ccccc1)Nc1ccc(Cl)c(Cl)c1` is entered as 100
# In GIV Gai3 FP, `O=C(Nc1ccc(NC(=O)c2cccs2)cc1)c1cccc(Br)c1` is entered as 104
# In Sa growth 42C second temp, `CC(C)NC(=O)N(Cc1ccccc1)Cc1cccnc1` is entered as 99
# In Sa growth 42C second temp, `CCOC(=O)c1ccc(NC(=O)c2c(NCc3cc(OC)ccc3OC)sc3c2CCC3)cc1` is entered as 58

# Remaining list, next part.
SMILES,Sa growth 42C,Sa growth 42C second temp,GIV Gai3 FP,HCMV UL50-53 inh
CCn1c(SCC2COc3ccccc3O2)nnc1-c1cccs1 (stereo unspecified),73,33,·,-11
Cc1cc(C)nc(-n2nc(C)c3c2NC(=O)CC3c2ccccc2C)n1 (stereo unspecified),·,·,101,4
CCc1nnc(NC(=O)C2CCN(S(=O)(=O)Cc3ccccc3)CC2)s1,99,80,101,-6
Cn1c(=O)c(C(=O)Nc2cccnc2)nn(-c2ccc(Cl)cc2)c1=O,·,·,103,-130
O=C(COC(=O)c1ccc(Cl)nc1)NCc1ccccc1,87,90,·,-40
CN(C)CCNC(=O)c1ccc2c(c1)N(Cc1c(F)cccc1Cl)C(=O)c1ccccc1S2,112,81,101&101,-14&-8
Cc1cc(C)c(S(=O)(=O)Nc2cc(Cl)c3oc4c(c3c2)C(=O)CCC4)cc1C,92,98,98,8
O=C(NCCN1CCN(c2ccccc2)CC1)c1ccc2c(=O)n(CCc3ccccc3)c(=O)[nH]c2c1,86,88,102,-28
CC1=C(C(=O)NCc2ccccc2F)C2(CCCCC2)OC1=O,108,88,103,·
C=CCNC(=O)Nc1ccc(Cl)cc1,90,92,·,-8
CCN(CC)S(=O)(=O)c1ccc(NC(=O)COc2c(OC)cccc2OC)cc1,95,93,·,10
O=C(NCCCN1CCN(c2ccccc2)CC1)NCc1ccccc1,101,82,101,-14
CC1CCCCN1c1nnc(NC(=O)Nc2ccccc2F)s1 (stereo unspecified),113,91,102,-8
CCCCc1nn2c(=O)cc(COC(=O)c3ccccc3NC(=O)c3ccccc3OC)nc2s1,77,82,107,·
CCC(C)NC(=O)Cn1ccc2cc(S(=O)(=O)N3CCCCC3)ccc21 (stereo unspecified),120,92,103,·
COc1cc(NC(=O)c2ccc3c(c2)C(=O)N(c2cccc(C)c2C)C3=O)c(C(=O)O)cc1OC,93,84,99,-20
CCOC(=O)CC1=CC(=O)N(Cc2ccc(F)cc2Cl)c2ccccc2N1,·,·,109,-6
Cc1ccc(Nc2nnc(C)c(=O)[nH]2)cc1,91,91,101&95,-4&-14
CC(C)Oc1ccc(OCCSc2nc3ccccc3n2CC(=O)O)cc1,·,·,103,-10
CC(C)CCn1cnc2c1c(=O)n(CC(=O)N1c3ccccc3NC(=O)C1(C)C)c(=O)n2Cc1ccccc1,105,94,·,-20
COc1ccc(-c2cc(C(=O)NCc3ccc4c(c3)OCO4)c3ccccc3n2)cc1OC,·,·,101,-16
O=c1[nH]cc(N2CCOCC2)c(=O)[nH]1,95,77,103,-22
COc1ccc(/C=C2/N=C(c3ccccc3)OC2=O)cc1,110,90,·,-24
O=C(NCc1ccccc1)N1CC2C=CC1C2 (stereo unspecified),127,96,104,·
O=C(CCCn1c(=O)c2cccn2c2ccc(Br)cc21)N1CCOCC1,·,·,103,6

# Molecules above with bromine, in the order listed:
SMILES,Sa growth 42C,Sa growth 42C second temp,GIV Gai3 FP,HCMV UL50-53 inh
CN(Cc1cc(Br)cc(Br)c1N)C1CCCCC1,92&92,85&91,103,-31&-32&-5
O=C(Nc1ccc(NC(=O)c2cccs2)cc1)c1cccc(Br)c1,105,102,104,8
O=C(CCCn1c(=O)c2cccn2c2ccc(Br)cc21)N1CCOCC1,·,·,103,6

# Other structures follow:
SMILES,Sa growth 42C,Sa growth 42C second temp,GIV Gai3 FP,HCMV UL50-53 inh
CCOc1ccc(NC(=O)CN(C)c2ccc(S(=O)(=O)N(C(C)C)C(C)C)cn2)cc1OCC,86,85,·,-12
O=c1[nH]c(=S)nc2cc[nH]n12,92,83,101,-24
Cc1cccn2c(=O)c(C(=O)NCCCN3CCCCC3C)c(O)nc12 (stereo unspecified),·,·,99,-4
CCOc1ccc(-n2nc(C(=O)N3CCC4(CC3)OCCO4)c3ccccc3c2=O)cc1,96,91,105,-7
Cn1cc(-c2nc(-c3ccc4c(c3)OCO4)no2)c(=O)c2cc(F)c(N3CCCCC3)cc21,·,·,102,-17
CC1CN(C(=O)CCC(=O)NC2CCN(Cc3ccccc3)CC2)c2cc(Cl)ccc2O1 (stereo unspecified),112,91,107,12
COc1cc(OC)cc(C(=O)NCCc2csc(-c3ccc(C(F)(F)F)cc3)n2)c1,102,100,96,·
CCN1CCN(C(=O)C(C)n2c(C)c3cnn(-c4ccccc4)c(=O)c3c2C)CC1 (stereo unspecified),115,93,106,·
CCOc1ccc(NC(=S)NCCCn2ccnc2)cc1,97,94,97,·
CCOC(=O)CC(NC(=O)c1cc2cc(Cl)ccc2oc1=O)c1ccc(C)cc1 (stereo unspecified),86,105,106,-15
Cc1cc(C)n(-c2ccccc2)n1,108,83,·,-39
O=C1c2ccncc2C(=O)N1Cc1cccc(Cl)c1,·,·,106,-49
Cc1ccc(S(=O)(=O)c2cn(Cc3ccccc3F)c3cc4c(cc3c2=O)OCO4)cc1,92,81,114,14
Cc1cccc(S(=O)(=O)NCc2cn3ccsc3n2)c1,90,88,105,-28
CN(C(=O)COC(=O)c1ccc2ccccc2c1)c1ccccc1,114,83,·,-13
O=C(Nc1ccc2c(c1)OCCO2)c1ccccc1,105,82,96,-22
COc1ccc(N2CCN(C(=O)CN(C)S(=O)(=O)c3cccs3)CC2)cc1,102,89,106,-13
COCCn1c(-c2ccccc2)c(C)n2c3c(=O)n(C)c(=O)n(C)c3nc12,101,91,107,7
NC(=O)Cn1cc(F)c(=O)[nH]c1=O,90,91,101,4
Cc1ccc2c(c1)c(=O)c1ccccc1n2CC(=O)Nc1c(F)cc(F)cc1Br,·,·,104,-15
CCN(CC)S(=O)(=O)c1ccc2c(c1)N(CC(=O)NCC(C)c1ccccc1)C(=O)CO2 (stereo unspecified),98,86,99,11
Cc1cc2c3c([nH]c2cc1S(=O)(=O)N1CCc2ccccc2C1)CCCC3=O,·,·,108,-13
CS(=O)(=O)N(Cc1ccccc1)c1ccc(C(=O)NC2CCCCC2O)cc1 (stereo unspecified),103,80,104,-26
N/C(CSc1cccs1)=N\OC(=O)Nc1ccccc1,101,90,110,-11
CCCC(=O)Nc1ccc2c(c1)nc(Cn1ccnc1C)n2CCC,·,·,98,-10
# More results:
SMILES,Sa growth 42C,Sa growth 42C second temp,GIV Gai3 FP,HCMV UL50-53 inh
COc1nc(Oc2ccc(=O)n(-c3ccccc3)n2)nc(N(C)C)n1,105,95,103,-37
O=C(CC(C(=O)N1CCc2ccccc21)n1ccnc1)NCc1ccccc1 (stereo unspecified),103,85,106,·
CCCCOc1ccc(C2c3c(oc4ccc(C)cc4c3=O)C(=O)N2CCCN(C)C)cc1OCC (stereo unspecified),100,90,109,-20
Nc1nonc1C(=O)NCCNCc1ccncc1,83,83,95,-35
O=C1S/C(=C\C=C\c2ccco2)C(=O)N1c1ccccc1,125,93,115,-23
O=C1[C@H](CCC(O)c2ccc(F)cc2)[C@@H](c2ccc(O)cc2)N1c1ccc(F)cc1 (stereo partly specified),88,86,·,-42
COc1ccc(CNC(=O)C(C(C)C)N2Cc3ccccc3C2=O)cc1 (stereo unspecified),112,99,103,·
O=C(NCc1ccccc1)c1nccnc1CO,111,92,106,2
OCCOc1ccccc1O,69,82,·,-26
